# Source: PubChem
# NPYLR7 agonist: activates Aedes aegypti NPYLR7 receptor | HEK293T NPYLR7/Galpha15, GCaMP6s calcium fluorescence | activation, % at 10 µM | AID 1259423 | 270,000 tested, 0.15% active; in the data active = activation above about 40%;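 also: 0% = vehicle and 100% = reference agonist at the receptor; some compounds past the cut are filed as inactive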
# NPYLR7 agonist max-min: further read-out of NPYLR7 agonist, marked with its call; activation, %; measured here: Max-Min RFU normalised activation; some inactives read as strong as hits;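 span of the calcium signal over five minutes; 0% = vehicle and 100% = native peptide agonist; compound fluorescence can raise it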
# Numbers without * were called inactive; & = joins results of further samples. Only part of the results is shown, so the mix of outcomes need not match the whole.
Molecule	NPYLR7 agonist	NPYLR7 agonist max-min
COc1ccc(CN(Cc2nc3cc(C)ccc3o2)C(=O)C2CCC2)cc1	5	2
O=C(c1cc2nc(-c3ccc([N+](=O)[O-])cc3)cc(C(F)(F)F)n2n1)N(Cc1ccccc1)c1ccccc1	4	2
CCc1ccc(C(=O)Nc2ccc(N3CCCC3)c(C(=O)NCc3ccc(F)cc3)c2)cc1	-4	0
COC(=O)C1C(C)=NC2=C(C(=O)CC(c3ccc(Cl)cc3)C2)C1c1ccccc1OC (stereo not given)	-3	-3
NC(=O)CSc1nnc2ccc(-c3ccccn3)nn12	-12	-11
CC(C)c1ccc(C2(C)NC(=O)N(CC(C#N)CCC#N)C2=O)cc1 (stereo not given)	6	4
CC(=O)c1c(C)[nH]c(-c2csc(NN3C(=O)C4CC=CCC4C3=O)n2)c1C (stereo not given)	0	27
COc1ccc(OC)c(S(=O)(=O)N2CCN(c3cc(S(=O)(=O)NCCCN4CCOCC4)ccc3OC)CC2)c1	27	15

# (listing goes on)
Molecule	NPYLR7 agonist	NPYLR7 agonist max-min
COc1ccc(CN2CCNC(=O)C2CC(=O)N(C)C2CCCCC2)cc1OC (stereo not given)	2	-1
CC(c1ccc(-c2ccc(C(N)=O)cn2)cc1)N1CCCCC1 (stereo not given)	8	0
CCCNC(=O)CN1CCC(Nc2nccn3cnnc23)CC1	5	5
O=C1c2ccc(Oc3ccc(Br)cc3)cc2C(=O)N1c1cccc2cccnc12	-5	-8
COc1ccccc1-c1cc(CNCc2ccc(F)cc2)no1	27	13
Cc1[nH]n2c(=O)cc(C(C)C)nc2c1-c1ccccc1	-5&10	-4&10
COC(=O)C1C(=N)Oc2c(oc(CO)cc2=O)C1c1ccccc1 (stereo not given)	0	0
CC(C)(C(=O)NC1CCN(C(=O)c2ccccc2)CC1)c1ccccc1	-1	-1

# Further results:
Molecule	NPYLR7 agonist	NPYLR7 agonist max-min
CC(C)(C)CC(=O)Nc1nnc(C2CC2)s1	1	6
CC1CCC2(CC1)NC(=O)N(N=Cc1ccc([N+](=O)[O-])o1)C2=O (stereo not given)	3	13
Cc1nn(C)c(C)c1NC(=O)CNC(c1ccccc1)C1CCCC1 (stereo not given)	-1	-2
CC1CCCCN1C(=O)C(NC(=O)c1ccccc1)C1CCNCC1 (stereo not given)	34	37
COc1ccc(-n2ccnc2C2CC(=O)Nc3c2cnn3CCC(C)C)cc1 (stereo not given)	1	1
COc1ccc(-n2nc(-c3ccccc3Cl)cc2C(=O)N2CCC(Cc3ccccc3)CC2)cc1	-1	10
CCN(CC)CCOc1ccccc1CNC(=O)c1ccccc1C	6	5
CCn1cnc(C(=O)NC)c1C(=O)NC	2	0

# (further entries)
Molecule	NPYLR7 agonist	NPYLR7 agonist max-min
CC(C)CC1COCCN1c1cc(C(F)(F)F)nc(-c2cccnc2)n1 (stereo not given)	4	2
O=S(=O)(c1ccc(F)c(F)c1)N1CCN(c2nnnn2-c2ccccc2)CC1	3	0
COc1cn2c(cc1=O)C(=O)N(CCNC(=O)c1ccc(F)cc1F)CC2	15	11
NC(=O)N1CCN(C(=O)c2ccccc2C2CCNC2)CC1 (stereo not given)	-3	-3
O=C(CSc1ncccc1C(=O)OCc1ccc(Cl)nc1)Nc1ccc2c(c1)OCO2	2	4
CC1(C)O[C@@H]2C[C@@](OCc3ccccc3C#N)(C(=O)NCC3CC3)CC(OCc3cccc(F)c3F)[C@@H]2O1 (stereo not given in full)	3	7
COc1ccc(-c2nc(-c3ccc(Br)o3)no2)cc1OC	-2	-1
CCOC(=O)c1cnc(-c2cccc(C(F)(F)F)c2)nc1NCCSC	-2	-13

# The listing continues.
Molecule	NPYLR7 agonist	NPYLR7 agonist max-min
COc1ccc(C(=O)Nc2c(-c3ccccc3OC)nc3ccc(C)cn23)cc1	-1	0
Nc1c([N+](=O)[O-])ccc2c1=[N+]([O-])C1(CCCCC1)[N+]=2[O-]	-14	-19
O=C1NC(=Nc2ccccc2)S/C1=C/c1cccc(O)c1	27	10
O=C(NCC12CC3CC(CC(C3)C1)C2)N1CCC(N2CCNC2=O)CC1	10	7
COCCN(CC(=O)N(Cc1ccc(F)cc1)Cc1ccc(C)s1)C(=O)c1ccco1	13	19
O=S(=O)(c1ccsc1)N1CCOC(Cc2ccccc2Cl)C1 (stereo not given)	5	0
CC(=O)Cn1c(=O)c2c(nc3n(-c4ccc(Br)cc4)c(C)c(C)n23)n(C)c1=O	1	11
O=C1C(O)CC2c3ccccc3CC3(CCCC3)N12 (stereo not given)	-2	-3

# Additional compounds:
Molecule	NPYLR7 agonist	NPYLR7 agonist max-min
Cc1cc(C)cc(OCCN(C)C(=O)c2nc3cccc(C)n3c2F)c1	-7	-11
Cc1cc(C(=O)NC(CC(C)C)c2ncnn2C)nc(C)n1 (stereo not given)	28	17
CC(C)(C)OC(=O)Nc1ccncc1C(=O)c1ccccc1	-7	-6
Cc1c(C(=O)N(C)Cc2ccc(F)cc2)sc(=O)n1Cc1ccncc1	5	1
Cc1cc(=O)n(C)c(=O)n1CCCSC(=N)N	-3	-9
COC(=O)C1=C(C)N(C)C(C)=C(C(=O)OC)C1c1ccccc1OCc1ccccc1	2	3
O=C(c1nc2sccn2c1CNCC1CCOCC1)N1CCCC1	15	6
Cc1ccccc1-n1ncc(C(C)NC(=O)C2CC2)c1C (stereo not given)	12	4

# The list goes on.
Molecule	NPYLR7 agonist	NPYLR7 agonist max-min
C=CCc1cc(C)c(OCCCN2CCN(C)CC2)c(C)c1	-11	-19
O=C(c1cccc(F)c1)N(Cc1nccn1Cc1ccccc1Cl)C1CC1	16	25
CCOC(=O)C1CCN(C(=O)c2nn(-c3ccc(C)c(Cl)c3)c(=O)n(Cc3cccc(C)c3)c2=O)CC1	20	19
Cc1cc(NC(=O)c2c(-c3ccccc3Cl)noc2C)ccc1NC(=O)c1ccccc1	-12	-17
O=P1(NN=C2CCCC2)C=C(c2ccccc2)OC(c2ccccc2)=C1	3	1
COCc1ncc(C2CC(=O)NCc3nc(N4CCOCC4)sc32)cn1 (stereo not given)	16	4
O=C(O)Cc1cccc(NC(=O)CCCc2nc(C3CC3)no2)c1	0	0
COc1ccc(Cl)cc1N1CCN(C(=O)c2ccc([N+](=O)[O-])cc2)C(C)C1=O (stereo not given)	-1	9

# Record cards (already shown). Order of values: NPYLR7 agonist	NPYLR7 agonist max-min
# Record of NC(=O)N1CCN(C(=O)c2ccccc2C2CCNC2)CC1 (stereo not given) → -3	-3
# Record of Cc1cc(C)cc(OCCN(C)C(=O)c2nc3cccc(C)n3c2F)c1 → -7	-11
# Record of Cc1c(C(=O)N(C)Cc2ccc(F)cc2)sc(=O)n1Cc1ccncc1 → 5	1
# Record of CC(=O)c1c(C)[nH]c(-c2csc(NN3C(=O)C4CC=CCC4C3=O)n2)c1C (stereo not given) → 0	27

# Following part.
Molecule	NPYLR7 agonist	NPYLR7 agonist max-min
COC(=O)c1cc(CN2CCCN(c3ccc(F)cc3)CC2)cs1	0	-8
CCS(=O)(=O)CC(C)NC(=O)N1CCC(C(C)C)CC1 (stereo not given)	3	3
CSc1ccc(-c2nccn2CC2CCN(C(=O)C(C)C)CC2)cc1	6	5
CCN(CC)C(=O)Oc1ccc2c(ccn2Cc2cccc(C(=O)c3ccccc3)c2)c1-c1ccc(C#N)cc1	8	-3
Cc1ccc(NC(=O)c2sc(=O)[nH]c2C)cc1	10	7
O=C(C1CCCN(Cc2nc(COc3ccccc3)no2)C1)N1CCOCC1 (stereo not given)	4&3	-1&3
CC(C)Cc1nc(-c2cccc(CN3CCN(C(=O)C(C)Oc4ccccc4)CC3)c2)no1 (stereo not given)	2	2
Cc1nc2cccc(C)n2c(=O)c1NC(=O)CC(c1ccccc1)c1ccccc1	-6	-5

# Further records.
Molecule	NPYLR7 agonist	NPYLR7 agonist max-min
COc1ccc(-c2cccc(NC(=O)Nc3ccccc3)c2)nn1	1	-1
O=S(=O)(c1cc(Br)ccc1Br)N1CCCC1	-1	1
CC(C)(C)OC(=O)N(CCN)C1CCCCCC1	11	8
C[C@H]1[C@@H]2[C@@H](O)C([C@H](C)C(=O)NCCN3CCCC3)CC[C@@]2(C)CC[C@@H]1NC(=O)c1ccncc1 (stereo not given in full)	-14	-17
COc1ccc(C(=O)N2CCCC(C(=O)c3ccc(-c4ccccc4)c(F)c3)C2)o1 (stereo not given)	-4	-7
CN(C)c1ccc(P(=O)(OC2CCCCC2)C(O)c2ccccc2)cc1 (stereo not given)	2	4
CCCCc1nc(N2CCCN(C(=O)COCc3ccccc3)CC2)c2c(-c3ccc4ccccc4c3)noc2n1	11	3
CC(=O)O[C@]1(C(C)=O)CC[C@H]2[C@@H]3CCC4=CC(=O)CCC4=C3[C@@H](c3ccc(N(C)C)cc3)C[C@@]21C	7	-1

# Seven structures already listed, arranged by count of non-hydrogen atoms, lowest first.
Molecule	NPYLR7 agonist	NPYLR7 agonist max-min
O=S(=O)(c1cc(Br)ccc1Br)N1CCCC1	-1	1
CC(C)(C)OC(=O)N(CCN)C1CCCCCC1	11	8
COc1ccc(-c2cccc(NC(=O)Nc3ccccc3)c2)nn1	1	-1
Cc1nc2cccc(C)n2c(=O)c1NC(=O)CC(c1ccccc1)c1ccccc1	-6	-5
CC(C)Cc1nc(-c2cccc(CN3CCN(C(=O)C(C)Oc4ccccc4)CC3)c2)no1 (stereo not given)	2	2
C[C@H]1[C@@H]2[C@@H](O)C([C@H](C)C(=O)NCCN3CCCC3)CC[C@@]2(C)CC[C@@H]1NC(=O)c1ccncc1 (stereo not given in full)	-14	-17
CC(=O)O[C@]1(C(C)=O)CC[C@H]2[C@@H]3CCC4=CC(=O)CCC4=C3[C@@H](c3ccc(N(C)C)cc3)C[C@@]21C	7	-1

# (listing goes on)
Molecule	NPYLR7 agonist	NPYLR7 agonist max-min
CCN(CC)S(=O)(=O)c1ccc2c(c1)nc(SCc1cc(OC)ccc1OC)n2C(C)C	2	-2
CCN1CCCN(c2ccc(-c3nc(C)cc(=O)[nH]3)cn2)CC1	-20	-19
CCC(COC)NC(=O)c1c(C)noc1-c1cccs1 (stereo not given)	-1	3
Cc1oc(-c2cc3c(cc2Cl)OCO3)nc1CN1CCCC1c1ccc(F)cc1 (stereo not given)	-7	-11
COc1ccccc1-n1c(=O)c2ccc(Cl)cc2n(C(C)C(=O)NCc2ccccn2)c1=O (stereo not given)	3	11
CN1CCN(C)C(CNC(=O)C2CC2c2ccc(Cl)c(Cl)c2)C1 (stereo not given)	-23	-24
CC(N)=C(C#N)C(=O)COC(=O)c1ccc([N+](=O)[O-])o1	0	55
CCCCCCn1c(SCC(=O)c2ccccc2)nc2c1c(=O)n(C)c(=O)n2C	25	25

# The results go on.
Molecule	NPYLR7 agonist	NPYLR7 agonist max-min
COC(=O)c1cccc(N2C(=O)/C(=C/c3ccc(-c4cc(Cl)ccc4Cl)o3)C=C2c2ccccc2)c1	-1	3
Cn1nc(C(=O)Nc2nc3ccc(S(C)(=O)=O)cc3s2)ccc1=O	10	12
CCOC(=O)C1=C(C)NC(C)=C(C(=O)OCC)C1C1=COCCO1	-9	-9
COc1cccc(CN(C)C(=O)c2sc(=O)n(Cc3ccc(F)cc3)c2C)c1	9	8
Cc1nc2c(SCC(=O)N3CCCCC3)nnc(-c3ccccc3)c2s1	1	-1
CSCCCNC(=O)c1ccc(-c2cccc(Cl)c2)s1	27	27
CC(C)c1nc(C(=O)N(Cc2cccnc2)CC2CCN(C3CCCC3)CC2)cs1	20	12
Cc1cccc2ncc(C(=O)NC3CC(=O)N(C4CCCCCC4)C3)c(=O)n12 (stereo not given)	5	1

# Going on with the list.
Molecule	NPYLR7 agonist	NPYLR7 agonist max-min
CCCSc1nc2c(c(=O)n1-c1ccc(C)cc1)SCC2	1	0
CCCCC(=O)Nc1ccc(N2CCOCC2)cc1	-1	-3
CS(=O)(=O)N1CCN(C(=O)CSc2nc3ccccc3[nH]2)CC1	-6	9
O=c1ccc(-c2cccnc2)nn1CCNS(=O)(=O)c1cccnc1	6	-5
CC(NC(=O)CCn1cnc2ccccc21)c1ccc(O)c(F)c1 (stereo not given)	7	5
